FGF22 binding: binders of recombinant human FGF22 by thermal shift; calls only at 9.99 µM; SYPRO orange fluorescence; percent of sucrose octasulfate shift, DMSO zero; 340,000 compounds, 1.5% hits; Q9HCT0;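 active = melting point raised past a set limit in the mean and every replicate; three in four hits are not shown here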
Beta2AR agonist: activates human beta-2 adrenergic receptor causing internalization; P07550; Am2.2-beta2AR cells, FAP receptor internalization, flow cytometry; reference of the scale not given here; response, % (concentration not given with the values); 340,000 compounds, 0.43% hits;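 active = response above a set limit, near 3 SD of response in nonfluorescent compounds, cut at about 42% in these data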;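 also: stock transfer was 100 nL into about 11 µL; a reference agonist was the positive control; negative values mostly stem from fluorescent compounds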
ALR inh: inhibitors of human sulfhydryl oxidase ALR | purified ALR, DTT oxidation, H2O2 HRP-luminol luminescence | inhibition, % (concentration not given with the values) | 290,000 compounds, 3.8% hits;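 active = mean and each replicate at 75% or more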;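 also: stock transfer was 7.5 nL into about 7.5 µL; 0% = neutral wells and 100% = wells with inactivated enzyme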
Target sequence (P55789 whole entry, looked up): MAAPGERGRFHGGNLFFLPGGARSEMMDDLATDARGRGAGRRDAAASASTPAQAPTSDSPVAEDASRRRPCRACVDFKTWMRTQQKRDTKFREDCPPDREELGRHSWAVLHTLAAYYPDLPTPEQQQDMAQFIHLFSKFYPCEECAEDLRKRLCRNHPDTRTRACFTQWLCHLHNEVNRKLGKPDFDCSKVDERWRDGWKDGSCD
Ecoli rRNA inh: inhibits bacterial ribosomal RNA function over humanized ribosomes | AID 720706 | GFP signal change (wild-type ribosome), % (concentration not given with the values) | 350,000 compounds, 1.6% hits | E. coli WT GFP vs humanized-ribosome RFP mutants, fluorescence, 24 h; active compounds read low; DMSO median 0, no signal -100;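 active = significant combined selectivity score with lowered wild-type GFP, culture density cut under 30%, mutant RFP and density less affected; inactive = any of these conditions unmet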; also: one replicate is shown; some compounds called inactive have numbers as strong as hits
UCH37 DUB inh: human UCH37 deubiquitinating enzyme inhibition. Q9Y5K5. 330,000 compounds, 0.33% hits. inhibition, % (concentration not given with the values). purified proteasome/UCH37, Ub-AMC cleavage fluorescence;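 active = mean of two replicates above 20%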;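 also: 0% = compound-free wells with enzyme and 100% = wells lacking proteasome; stock transfer was 100 nL into about 20 µL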
Target sequence (Q9Y5K5 whole entry, looked up): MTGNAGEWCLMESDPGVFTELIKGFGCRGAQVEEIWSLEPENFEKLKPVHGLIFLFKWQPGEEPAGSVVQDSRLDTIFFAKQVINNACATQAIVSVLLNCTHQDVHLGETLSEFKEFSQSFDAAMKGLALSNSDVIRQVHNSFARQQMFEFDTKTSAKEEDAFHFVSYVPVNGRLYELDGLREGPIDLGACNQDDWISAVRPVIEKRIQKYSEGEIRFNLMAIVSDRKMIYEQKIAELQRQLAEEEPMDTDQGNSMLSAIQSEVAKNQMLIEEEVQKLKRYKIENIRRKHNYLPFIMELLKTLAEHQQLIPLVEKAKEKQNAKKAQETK
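assay system = human UCH37 enzyme supplied as purified proteasome complex | amount = proteasome at 0.15 nM in the dispensed enzyme solution | schedule = 30 min compound-proteasome preincubation then 25 min substrate reaction, room temperature | measured by = fluorescence, ex 355 nm, em 460 nm | benchmarks = no-proteasome wells (full inhibition) and compound-free wells (no inhibition)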
HNF4A DNA FP: change in binding of human HNF4 alpha to DNA | activity change, % at 10 µM | HNF4a-FITC DNA binding, fluorescence polarization, 1 h | 360,000 compounds, 0.3% hits | P41235; in the data active = activity change above about 30%, passing the limit was not always enough;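 also: controls were the assay level and a saturating level of protein; the project sought stronger binding though the title names inhibitors; some compounds called inactive have numbers as strong as hits; positive values seem to mean higher polarization but the record does not say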
Target sequence (P41235 whole entry, looked up): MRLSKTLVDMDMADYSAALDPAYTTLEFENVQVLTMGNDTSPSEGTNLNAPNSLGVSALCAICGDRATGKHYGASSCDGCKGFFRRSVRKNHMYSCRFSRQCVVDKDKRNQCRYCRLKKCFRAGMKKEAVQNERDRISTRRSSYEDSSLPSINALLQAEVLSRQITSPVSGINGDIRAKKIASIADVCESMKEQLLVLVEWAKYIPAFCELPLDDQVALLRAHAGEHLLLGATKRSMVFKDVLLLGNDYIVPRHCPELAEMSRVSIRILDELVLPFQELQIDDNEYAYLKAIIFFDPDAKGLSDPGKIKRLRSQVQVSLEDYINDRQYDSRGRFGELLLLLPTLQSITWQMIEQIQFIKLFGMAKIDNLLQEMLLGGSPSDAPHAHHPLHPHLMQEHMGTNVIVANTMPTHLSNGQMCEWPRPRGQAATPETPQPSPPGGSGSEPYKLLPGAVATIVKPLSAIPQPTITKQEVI
Ecoli growth: blocks Escherichia coli growth; OD600, 23 h; active compounds read low; 330,000 compounds, 0.21% hits; OD600 absorbance (no concentration beside the values);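 active = OD600 absorbance below the run mean of sample wells minus 3.6 SD, in any replicate, cut at about 0.56 in these data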;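 also: stock transfer was 300 nL into about 60 µL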
Ecoli rRNA inh OD600: also measured in Ecoli rRNA inh; calls as there; OD600 change, %; measured here: OD600 growth;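 optical density of the mix in the first replicate; 0 = DMSO median and -100 = no signal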
Ecoli rRNA inh RFP: further read-out of Ecoli rRNA inh, marked with its call; RFP signal change, %; measured here: RFP humanized mutant strains;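 first replicate; 0 = DMSO median and -100 = no signal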
The depositor's hits bear a star; i = inactive; nt = no result given.

SMILES	FGF22 binding	Beta2AR agonist	ALR inh	Ecoli rRNA inh	Ecoli rRNA inh OD600	Ecoli rRNA inh RFP	UCH37 DUB inh	HNF4A DNA FP	Ecoli growth
O=C(NN=Cc1cccc2ccccc12)C1CC1	i	-13	nt	-16	-1	-2.2	7.5	1.6	0.67
O=C(CCNc1n[nH]c(=O)[nH]c1=O)N/N=C/c1ccc(Cl)cc1	nt	7	6	30	25	1.6	nt	4.6	nt
COc1ccccc1NC(=O)CSc1nnc(C2CCCCC2)n1C	nt	2	-2	nt	nt	nt	0.4	3.2	0.74
Cc1ccc(N=C2NC(=O)/C(=C\c3ccco3)S2)cc1	nt	-9	nt	nt	nt	nt	5.3	3.5	0.67
CCc1nc2cc(Cl)c(Cl)cc2[nH]1	nt	10	47	nt	nt	nt	4.5	0.4	0.67
Cc1nn(-c2ccccc2)c2sc(-c3nnc(SCC(=O)O)o3)cc12	i	-6	4	-19	-19	7.1	-132	3.6	0.65
COc1ccccc1N(CC(=O)NC(C)(C)C)S(=O)(=O)c1cccs1	i	-3	nt	-7	-10	-6.9	-18	1.1	0.7
CN1C(=O)CSc2ccc(NC(=O)N3CCN(c4ccccc4)CC3)cc21	i	4	48	1	3	-2.4	7.9	0.3	0.66
COCc1c(C(=O)OC/C(O)=C(\C#N)c2nc3ccccc3[nH]2)oc2ccccc12	i	-1	-18	18	15	3.0	nt	16	nt
O=C(CN1CCOCC1)N/N=C/C(Br)=C\c1ccccc1	i	-2	29	19	12	3.0	nt	4.0	nt

Full records, looked up by structure. Order of values: FGF22 binding, Beta2AR agonist, ALR inh, Ecoli rRNA inh, Ecoli rRNA inh OD600, Ecoli rRNA inh RFP, UCH37 DUB inh, HNF4A DNA FP, Ecoli growth
Listed for CN1C(=O)CSc2ccc(NC(=O)N3CCN(c4ccccc4)CC3)cc21 : i, 4, 48, 1, 3, -2.4, 7.9, 0.3, 0.66
Listed for Cc1nn(-c2ccccc2)c2sc(-c3nnc(SCC(=O)O)o3)cc12 : i, -6, 4, -19, -19, 7.1, -132, 3.6, 0.65
Listed for COc1ccccc1N(CC(=O)NC(C)(C)C)S(=O)(=O)c1cccs1 : i, -3, nt, -7, -10, -6.9, -18, 1.1, 0.7
Listed for COCc1c(C(=O)OC/C(O)=C(\C#N)c2nc3ccccc3[nH]2)oc2ccccc12 : i, -1, -18, 18, 15, 3.0, nt, 16, nt
Listed for COc1ccccc1NC(=O)CSc1nnc(C2CCCCC2)n1C : nt, 2, -2, nt, nt, nt, 0.4, 3.2, 0.74

More compounds follow:
SMILES	FGF22 binding	Beta2AR agonist	ALR inh	Ecoli rRNA inh	Ecoli rRNA inh OD600	Ecoli rRNA inh RFP	UCH37 DUB inh	HNF4A DNA FP	Ecoli growth
CCCCOC1(c2ccccc2)NC(=S)NN=C1c1ccccc1 (stereo not drawn)	nt	nt	38	nt	nt	nt	-0.4	nt	0.66
COc1ccc(CNC(=O)Cn2cc([N+](=O)[O-])cn2)cc1	i	-3	-9	2	8	0.8	1.7	0.1	0.67
CCN(CC)C(=O)C(C)N(C#N)c1nc(Cl)nc(N(C)C)n1 (stereo not drawn)	nt	-4	25	12	16	-0.1	2.3	0.5	0.64
Cc1ccc([N+](=O)[O-])cc1NC(=O)Nc1ccc(S(N)(=O)=O)cc1	i	1	-6	4	9	-0.2	5.5	1.5	0.61
COc1ccc(-n2c(=S)[nH]c3cc(C(=O)Nc4cc(OC)c(OC)c(OC)c4)ccc3c2=O)c(OC)c1	i	15	22	-14	-16	-4.1	7.4	-2.8	0.72
COc1cc2c(cc1NC(=O)c1cccc(S(=O)(=O)N(C)C)c1)oc1ccccc12	nt	15	-4	nt	nt	nt	-19	2.2	0.73
COc1cccc(NC(=O)COC(=O)Cc2ccccc2[N+](=O)[O-])c1	i	-5	nt	-17*	-4.9*	6.1*	-0.1	0.0	0.69
Cc1ccc(OCCOCCN2CCCC2)c(Br)c1	i	1	-10	30	13	3.5	1.0	1.8	0.65
Cn1c(=O)c2c(-c3ccc(OC(F)F)cc3)cc(-c3ccccc3)nc2n(C)c1=O	nt	nt	1	nt	nt	nt	0.4	nt	0.7
CSc1nnc(C2CCN(CC(=O)Nc3ccccc3N3CCOCC3)CC2)n1C(C)C	i	0	nt	0	1	-3.8	1.4	-0.4	0.69
CC1CCc2[nH]c3ccc(C(=O)N(C)CC(=O)Nc4cccc(F)c4)cc3c2C1 (stereo not drawn)	i	-2	3	-34	-75	-1.6	1.4	1.9	0.68
CC(=O)NC1CC2CCCC(C1)N2C(=O)Nc1ccc(Cl)c(C(F)(F)F)c1 (stereo not drawn)	nt	7	-7	nt	nt	nt	3.7	30*	0.69
COc1ccccc1N1CCN(Cc2ccc(OC)c3ccccc23)CC1	i	-2	-6	-22*	-8.3*	-4.0*	-0.6	-5.9	0.74
COc1cccc(CN2C(=O)C3(C(C#N)=C(N)OC4=C3C(=O)CCC4)c3ccccc32)c1 (stereo not drawn)	i	-3	-14	0	8	-2.8	3.0	0.6	0.69
COc1ccc([N+](=O)[O-])cc1N(CC(=O)O)S(C)(=O)=O	i	0	-24	15	1	-9.8	8.7	2.5	0.66
Cc1c(C(=O)Oc2ccc(F)cc2)sc2ncn(Cc3cccc(F)c3)c(=O)c12	i	4	-8	16	2	-2.7	-3.1	-0.4	0.69
CC1(c2ccc3c(c2)OCO3)NC(=O)N(CC(=O)c2ccc[nH]2)C1=O (stereo not drawn)	i	-6	-3	2	2	-1.0	1.9	3.2	0.71
CC1(C)CC(=O)C(=CN2CCN(C(=O)c3ccco3)CC2)C(=O)C1	i	5	nt	2	2	-1.8	3.9	-0.4	0.66
O=S(=O)(CCNCc1ccco1)NC1CCCCC1	i	-9	nt	2	6	-4.1	nt	4.2	nt
CCCCN(C(=O)c1cccc(S(=O)(=O)N2CC(C)OC(C)C2)c1)c1c(N)n(CCCC)c(=O)[nH]c1=O (stereo not drawn)	i	10	3	4	-2	-2.4	-1.3	-3.1	0.68
COc1cc2ccccc2cc1-c1nnc(COc2ccccc2)o1	i	-26	-27	2	11	-3.3	-20	-2.0	0.76
COc1cc(/C=C2\SC(=S)N(NC(=O)c3ccccc3OC)C2=O)ccc1O	i	8	1	-2	-6	3.5	5.9	48*	0.71
O=C(Nc1nccs1)c1ccc(Br)c(S(=O)(=O)N2CCOCC2)c1	nt	4	-4	nt	nt	nt	3.3	3.8	0.74
CCOC(=O)C(NC(C)=O)C(OC(C)=O)c1cccc([N+](=O)[O-])c1 (stereo not drawn)	nt	-8	-2	nt	nt	nt	-0.1	-2.1	0.7
COc1ccc(C2C(C(=O)NCC3CCCO3)CCC(=O)N2c2ccc3c(c2)OCO3)cc1 (stereo not drawn)	nt	1	-8	nt	nt	nt	-2.0	1.9	0.71
CCCCCCCSc1nsc(N)n1	nt	-1	-12	nt	nt	nt	4.6	-4.2	0.63
CCn1nc(C(=O)OCC(=O)N2CC(=O)Nc3ccccc32)c2ccccc2c1=O	i	-4	0	24	17	2.1	4.9	1.7	0.72
O=C1C=C(c2cc3ccccc3s2)C[C@@H](c2ccc3c(c2)OCO3)C1	i	-8	0	3	6	3.4	2.2	-9.1	nt
Cc1ccc(C(=O)N(CC(=O)Nc2sc(C)c(C)c2C(N)=O)C2CCCC2)cc1	i	0	nt	4	-20	2.6	0.5	0.6	0.66
Cc1cccc(NC(=O)c2oc3ccc(S(=O)(=O)N4CCOCC4)cc3c2C)c1C	nt	23	-9	nt	nt	nt	-14	-0.9	0.72
Cc1nn2c(-c3ccccn3)ccnc2c1Br	i	-2	-2	0	0	0.0	1.7	2.3	0.7
COc1ccc2sc(N3C(=O)C4CC=C(C)CC4C3=O)nc2c1 (stereo not drawn)	nt	-4	-2	nt	nt	nt	1.0	0.3	0.64
COc1ccccc1-c1csc(C(O)c2ccc(F)cc2)n1 (stereo not drawn)	i	nt	nt	-19	-20	-0.3	nt	1.0	nt
CN(CC(=O)NCc1ccccc1Cl)CC(=O)Nc1cccc(F)c1	i	6	-6	2	13	-2.2	2.2	1.9	0.68
N#CCCN(Cc1ccccc1)C(C(=O)NC1CCCCC1)C1CC1 (stereo not drawn)	i	nt	nt	-5	-4	0.5	nt	-1.6	nt
Cc1cc(C(=O)N2CCC2(C)C(=O)NCC(C)(C)C)nn1C (stereo not drawn)	i	nt	nt	20	21	-1.8	nt	-0.2	nt
COC(=O)C1=C(C)NC(=S)NC1c1sccc1C (stereo not drawn)	i	-3	-11	14	6	2.4	3.0	-0.1	0.66
Cc1ccc(-c2csc3ncnc(SCC(=O)NCC4CCCO4)c23)cc1 (stereo not drawn)	i	-4	1	nt	nt	nt	0.1	1.4	0.7
Cc1ccccc1N1CCN(CCCCN2C(=O)C3CCCN3C2=O)CC1 (stereo not drawn)	nt	-1	nt	nt	nt	nt	3.4	4.3	0.69
COc1cc(NC(=S)NCCO)c(OC)cc1Cl	i	7	25	nt	nt	nt	1.2	5.6	0.67
Cc1c(C)n(CC(O)CN(CCO)CCO)c2ccccc12 (stereo not drawn)	i	7	38	16	11	0.2	3.5	4.8	0.69
COc1ccc(Cc2nc3ccc(C(=O)NCCCSC)cc3o2)cc1OC	i	-7	nt	5	-12	-1.6	0.7	1.3	0.66
Cc1ccc(Cl)cc1N1CCN(C(=O)Cc2ccc(-n3c(=O)[nH]c4ccsc4c3=O)cc2)CC1	i	-2	-3	-36	-63	-4.0	1.0	-6.5	0.7
Cn1c(SCC(=O)NC2CCCCC2)nnc1-c1cc2ccccc2o1	nt	-6	-6	nt	nt	nt	2.4	-1.4	0.77
COc1cccc(NC(=O)CN(C)S(=O)(=O)c2ccc3c(c2)CCC(=O)N3)c1	nt	0	16	nt	nt	nt	2.1	0.3	0.67
COc1ccc(OCC(=O)NC2CCCN(Cc3ccc(Cl)cc3)C2)cc1 (stereo not drawn)	i	0	-6	-4	3	1.2	6.5	-1.7	0.65
COc1ccc(N(C(=O)CNC(=O)c2cccs2)C(C(=O)NC2CCCC2)c2ccncc2)cc1 (stereo not drawn)	i	-11	-3	6	13	2.0	nt	1.2	nt
Cc1cc(Cl)c2ccc3ccccc3c2n1	i	-1	0	10	-6	-2.0	0.9	2.0	0.69
O=C(NCc1ccc(Cl)cc1)C1CCN(S(=O)(=O)c2ccc(N3CCCC3=O)cc2)CC1	i	-2	-19	-2	6	0.8	-1.0	4.3	0.71
COc1ccc(C(=O)CCNc2ccc3c(c2)OCCO3)cc1	i	1	nt	13	2	-2.6	-2.0	-0.5	0.67
Continued.
SMILES	FGF22 binding	Beta2AR agonist	ALR inh	Ecoli rRNA inh	Ecoli rRNA inh OD600	Ecoli rRNA inh RFP	UCH37 DUB inh	HNF4A DNA FP	Ecoli growth
Cc1ccc(NC(=S)NCCC(c2ccccc2)c2ccccc2)c(C)c1	nt	-2	nt	nt	nt	nt	4.3	0.2	0.72
OC(c1ccc2c(c1)OCO2)c1nccc2ccccc12 (stereo not drawn)	i	1	-139	-5	0	-5.2	6.6	-5.9	0.65
CC(OC(=O)c1ccc([N+](=O)[O-])s1)C(=O)Nc1ncc(Cl)cc1Cl (stereo not drawn)	nt	-4	-51	nt	nt	nt	58*	-2.8	0.65
O=C(NCc1ccco1)C1CC(c2ccc(C(F)(F)F)cc2)=NO1 (stereo not drawn)	i	2	2	5	-1	-3.0	27*	-1.9	0.7
O=C(O)CSc1nc2ccccc2o1	nt	3	nt	nt	nt	nt	0.6	2.7	0.67
CCOC(=O)c1ccc(NC(=O)CC2SC(=NC)N(C)C2=O)cc1 (stereo not drawn)	nt	-2	48	nt	nt	nt	-1.8	-2.6	0.74
CCN1CCN(CC(=O)N2N=C(c3cccs3)CC2c2ccc(F)cc2)C(=O)C1=O (stereo not drawn)	i	-16	-3	-3	1	-0.9	0.6	-3.2	0.74

Bioassay records: PubChem BioAssay, several laboratories

Only part of the results is shown (hit frequency here may not be typical).
